Bioassay records from PubChem BioAssay.
Bead autofluor = compound fluorescence in toxin protease inhibitor counterscreen; compound autofluorescence counterscreen, microsphere flow cytometry; hits give high values; fluorescence intensity (concentration not given with the values); actives 3.1% (n = 360,000);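 active = at least 3 SD above the mean of all compounds, about 16000 in these data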;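 also: 100 nL of 1 mM stock went into each well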
* = called active by the depositor. A portion of the library; rates above refer to the full screens.

SMILES	Bead autofluor
COc1cc(-c2cc(NC=O)c3ncc(-c4ccc(C(C)=O)cc4)n3c2)cc(OC)c1OC	3896
COc1cc(Cn2c3ccc(NC(=O)NCCc4ccccc4)cc3c(=O)n2C)ccc1F	4418
Cc1ccccc1C1(O)c2ccccc2-c2ccccc21	3603
O=C1CN(CCN2CC(=O)N(Cc3ccccc3)C(=O)C2)CC(=O)N1Cc1ccccc1	3980
CN1CCCCC1Cc1ccccc1 (stereo unspecified)	6036
COc1cccc(CNC(=O)[C@@H]2CCCN2C(=O)[C@H]2CCCCN2S(=O)(=O)c2ccc(OC)c(C)c2)c1	5332
CNC(=O)C[C@@H]1C(=O)N(Cc2ccccc2)CC1(C)C	2977
CCN(CC)Cc1nc2nc(Cl)c(Cl)nc2[nH]1	3928
CC(=O)Nc1ccc(-c2ccnc3c2CC(C)(C(=O)Nc2ccccc2)O3)cc1 (stereo unspecified)	3696
O=C(c1[nH]c(C(F)(F)F)nc1-c1ccccc1)N1CCN(c2ccc(C(F)(F)F)cn2)CC1	5829
CCCCNC(=O)C1(C)CCN1Cc1cc(C)ccc1C (stereo unspecified)	3127
COCCNc1nc(Oc2cccc3ccccc23)c2sccc2n1	3686
COc1ccc(NC(=O)c2sc(=O)n(Cc3ccccc3C#N)c2C)cc1OC	5434
CC(O)(c1ccccc1)c1nc(/C=C/c2ccccc2)cs1 (stereo unspecified)	3883
CCOC(=O)[C@]12CCC=C1N(Cc1ccco1)C(=O)[C@H](CC(=O)NCCc1ccccc1OC)C2	6199
COc1cc(Cn2c3ccc(NC(=O)CC(C)C(F)(F)F)cc3c(=O)n2C)ccc1F (stereo unspecified)	3365
Cc1ccsc1C(=O)N1CCCCCC1(C)C(=O)NCC(C)C (stereo unspecified)	3735
CCOC(=O)[C@]12CCCC=C1N(Cc1cccc3ccccc13)C(=O)[C@H](CC(=O)NCc1ccccc1)C2	6051
CC(C)C[C@@H]1COc2cccc(N(C)CCO)c2S(=O)(=O)N1	5681
CC(C)Cc1nnc(NS(=O)(=O)c2ccccc2)s1	3733
N=c1c2ccccc2nc2n1CCCCC2	2690
CCOC(=O)C1=CCN(S(=O)(=O)c2ccc(C)cc2)C1c1ccc(Cl)cc1 (stereo unspecified)	5943
CC(C)Nc1ncnc2c1ncn2[C@H]1CN(Cc2ccc(-c3ccccc3)cc2)C[C@@H](CO)O1	2998
COc1cc(/C=C2/SC(=S)N(CCC(=O)N3CCN(C)CC3)C2=O)cc(OC)c1OC	3892
CCCCC(=O)N(C)c1c(C)nc2ccc(C(=O)N3CCNC(=O)C3)cn12	3856
COCCNc1ncnc2c1ncn2[C@H]1CN(Cc2cccs2)C[C@@H](CO)O1	3549
O=C(CSc1nc2cccc(F)c2c(=O)n1-c1ccccc1)Nc1ccc2c(c1)CCC2	4616
CCc1nc2ccc(C(=O)N(C)Cc3ccccc3)cn2c1N(C)Cc1ccc(OC)cc1	3092
CC1(C)CC[C@]2(C(=O)O)CC[C@]3(C)C(=CCC4[C@]56CC[C@@](O)(OC5)C(C)(C)C6CC[C@]43C)C2C1 (stereo partly specified)	5788
CCN(CC)c1ncnc2c1ncn2[C@H]1CN(Cc2ccccc2)C[C@@H](CO)O1	4220
O=C1NC[C@@H](CCCCN2CCN(CCc3ccccc3)C(=O)C2=O)N(CCC2CCCCC2)C1=O	5852
CCN(CC)CCNC(=O)CN1C(=O)CSc2ccc(S(=O)(=O)N3CCOCC3)cc21	4055
CCCc1cc(=O)oc2cc(OCC(=O)NCCN3CCOCC3)c(Cl)cc12	3761
CCCCN(C=O)c1c(CC)nc2ccc(C(=O)NCCCn3ccnc3)cn12	3530
COCCNC(=O)C1(C)CCCN(Cc2ccccc2N(C)C)C1 (stereo unspecified)	3844
COc1ccc(Cc2c(-c3ccccc3)nc3c4ccccc4ccn23)c(C)c1	6255
CC(=O)Nc1ccc(-c2ccnc3c2CC(C)(C(=O)NCc2ccco2)O3)cc1 (stereo unspecified)	4011
CCCCN(C=O)c1c(CC)nc2ccc(C(=O)N3CCN(C(C)=O)CC3)cn12	4196
CCOC(=O)c1ccc(O)c(-n2cc3c(c2-c2ccccc2)c(=O)n(C)c(=O)n3C)c1	5614
COc1ccc(-c2coc3c(C(=O)NCCN4CCOCC4)cccc23)c(C)c1	3820
CC(C)NC(=O)c1ccc(COc2cccc3ccccc23)o1	3447
CC1(C(=O)NS(=O)(=O)c2cccc(OC(F)F)c2)CCN1C(=O)c1ccccc1CCc1ccccc1 (stereo unspecified)	3686
CCCS(=O)(=O)NC(=O)C1(C)CCCN(C(=O)c2cccnc2Oc2ccccc2)C1 (stereo unspecified)	2917
COc1cc2ccnc(C=O)c2cc1OC	3907
O=C(NC(=S)N1CCN(c2ccc(F)cc2)CC1)c1ccccc1	3929
OC[C@H]1O[C@@H](c2nc(-c3ccc4[nH]ccc4c3)no2)[C@H](O)[C@@H](O)[C@H]1O	3740
Cc1ccc(S(=O)(=O)N(C)C[C@H]2Oc3cc(C#CC4CCCC4)ccc3S(=O)(=O)N([C@H](C)CO)C[C@H]2C)cc1	3284
CC1(C(=O)NCc2ccccc2)CCC(=O)N1C1CC1 (stereo unspecified)	5504
CN1CCN(C(=O)c2ccc(-c3cc4nc(NCc5cccnc5)n(C)c(=O)c4s3)cc2)CC1	3943
Cc1ccc(NS(=O)(=O)c2ccc(-n3cccn3)cc2)c(Br)c1	2955

(continued)
SMILES	Bead autofluor
CCN1C(=O)[C@H]2[C@@H](c3ccc(C)cc3)N[C@]3(CCCN(Cc4ccc(Cl)cc4)C3=O)[C@H]2C1=O	3902
CNc1nc(Oc2ccc3sc(C)nc3c2)c2sccc2n1	3839
O=C(NCc1ccncc1)C1Cc2c(-c3ccc4c(c3)OCO4)ccnc2O1 (stereo unspecified)	3666
O=c1cc(CN2CCOCC2)c2ccccc2o1	5643
COc1ccc(CN2C(=O)C(CC(=O)NC3CCCCC3)CC(C(=O)N(C)C)=C2C)cc1 (stereo unspecified)	3578
O=C(c1ccc(CS(=O)Cc2cccc(Cl)c2)o1)N1CCN(c2ccc(F)cc2)CC1 (stereo unspecified)	3808
COc1ccc(F)cc1-c1cc(C(=O)Nc2cccnc2)[nH]n1	3738
C=CCNc1nc(NCCOC)c2sc(-c3ccccc3)cc2n1	3050
CC1(C(=O)NS(=O)(=O)Cc2ccccc2)CCN1C(=O)C1(c2ccc(Cl)cc2)CC1 (stereo unspecified)	3818
CC1(C(=O)Nc2cccc(Oc3ccccc3)c2)Cc2c(-c3ccccc3)ccnc2O1 (stereo unspecified)	2992

Laid out differently: results already given.
> CCCCN(C=O)c1c(CC)nc2ccc(C(=O)NCCCn3ccnc3)cn12
  Bead autofluor: 3530

> COCCNC(=O)C1(C)CCCN(Cc2ccccc2N(C)C)C1 (stereo unspecified)
  Bead autofluor: 3844

Further results follow:
SMILES	Bead autofluor
COc1ccc(NC(=O)[C@@H]2O[C@H](CO)[C@H](O)[C@H](O)[C@H]2O)cc1F	3913
CCOC(=O)C1=CCN(S(=O)(=O)c2ccc(C)cc2)C1c1ccc(Br)cc1 (stereo unspecified)	5938
C[C@@H]1CN([C@H](C)CO)C(=O)CCCn2nncc2CO[C@H]1CN(C)S(C)(=O)=O	2936
CC1(C(=O)NS(=O)(=O)c2ccccc2Cl)CCN1C(=O)Cc1ccc(Cl)cc1Cl (stereo unspecified)	2948
CCC(CC)C(=O)N(C)c1c(C)nc2c(OCc3ccc(Cl)cc3)cccn12	4113
COc1ccc(-c2csc(NC(=O)CS(=O)(=O)c3ccccc3)n2)cc1OC	3604
CCOC(=O)C1(C)CCCN(C(=O)Cc2ccc3ccccc3c2)C1 (stereo unspecified)	3572
CCCCC(=O)N(C)c1c(CC)nc2c(OCc3ccc(C#N)cc3)cccn12	3900
COc1ccc(Br)c(Cn2c(C)c(C(=O)NCc3ccccc3C(F)(F)F)sc2=O)c1	4924
CNS(=O)(=O)c1ccc(CNC[C@H]2O[C@@H](n3cnc4c(=O)[nH]c(N)nc43)[C@H](O)[C@@H]2O)cc1	5532
CCOc1ccc(Oc2ccc(NS(=O)(=O)c3ccc(CCC(=O)O)cc3)cc2)cc1	2892
CCCCC(c1nc2ccccc2[nH]1)n1c(-c2ccccc2)nc2ccccc21 (stereo unspecified)	6083
O=C(Oc1ccc[nH]c1=O)c1ccccc1	4000
COc1ccccc1Cc1c(-c2cccc(Cl)c2)nc2ccc(Cl)cn12	9202
Cc1cccc(C)c1Nc1n[nH]c(=S)s1	3341
Cc1c(-c2ccccc2)n(O)[n+]([O-])c1-c1ccccc1	4008
CCOC(=O)C1(C)CCN1C(=O)c1cccc(C(F)(F)F)c1 (stereo unspecified)	3840
COc1ccccc1Cc1c(-c2ccc(Cl)cc2)nc2ccc(Br)cn12	14201
NNc1ccc([N+](=O)[O-])c2[nH][nH]c(=O)c12	2791
CN1CCN(C2CN(Cc3cn(Cc4ccccc4)nn3)S(=O)(=O)C2)CC1 (stereo unspecified)	3937
Cn1cc(-c2csc(C(O)c3ccccc3)n2)cn1 (stereo unspecified)	2849
COc1ccc(-c2csc(C(C)(O)c3ccccc3)n2)cc1OC (stereo unspecified)	4118
COc1cc(N)c2ncccc2c1SC	5770
COCCN(CCOC)Cc1cc(=O)oc2cc(C)c(C)cc12	5659
O=C(CCNC(=O)N1CC(=O)Nc2ccccc21)NCc1ccccc1Cl	3514
O=C(Nc1ccccc1Cl)c1cc(C2CCCN(C(=O)c3ccc4c(c3)CCO4)C2)on1 (stereo unspecified)	3979
CCOCCC(=O)Nc1ccc2c(c1)c(=O)n(C)n2-c1ccccc1F	3634
CCCCC[C@@H](C)N1C[C@@H](COCc2ccccc2)Oc2cc(N3CCC[C@@H]3CO)ccc2S1(=O)=O	4257
COc1ccccc1-c1cnc(C(O)c2ccc(Cl)c(F)c2)[nH]1 (stereo unspecified)	3762
CC1(C(=O)NS(=O)(=O)c2ccccc2C(F)(F)F)CCN1C(=O)CCc1ccccc1 (stereo unspecified)	3513
C[C@H](O)[C@@H]1CN2CCc3c([nH]c4ccccc34)[C@@H]2C[C@@H]1N(C)C(=O)Nc1cc(Cl)cc(Cl)c1	4350
Cc1ccc(Cn2cc(CN3CC(N4CCN(C5CCN(C)CC5)CC4)CS3(=O)=O)nn2)cc1 (stereo unspecified)	6574
COC[C@@H]1CCCN1[C@@H]1CS(=O)(=O)N[C@H]1COCc1ccccc1	6442
COc1ncnc2c1ncn2CCCNC1CCN(Cc2ccccc2)CC1	3838
COc1cccc(CNc2nc3cc(-c4ccccc4C)sc3c(=O)n2C)c1OC	3435
COc1ccccc1S(=O)(=O)N(C)C[C@H]1Oc2ncc(Br)cc2C(=O)N([C@H](C)CO)C[C@H]1C	2879
CCCOc1ccc(F)cc1-c1cc(C(=O)Nc2ccc(OC)nc2)[nH]n1	3053
CCOc1cc(N2CCOCC2)c(OCC)cc1NS(=O)(=O)c1ccc2c(c1)CC(=O)N2	3719
O=C(COC(=O)c1ccc(F)c(S(=O)(=O)N2CCOCC2)c1)Nc1ccc(Cl)cn1	3465
O=C(COC(=O)CSc1ccc(F)cc1)NC1CC1	3603
N#Cc1ccc(S(=O)(=O)N2CCCCC2c2cc(C(=O)Nc3cccc4c3CCCC4)no2)cc1 (stereo unspecified)	3619
O=C(COc1cccc(F)c1)Nc1nc(-c2ccccn2)cs1	3521
CCN(CC)CCN1CCN(c2cnc(C)cn2)CC1	3953
Cc1c(C(=O)NCc2ccc(Cl)c(Cl)c2)sc(=O)n1Cc1ccc(C(=O)N(C)C)cc1	5555
COc1ccc(-c2ccc3c(c2)c(Sc2ccccc2)c(-c2cc(OC)cc(OC)c2)n3C)cc1	5537
COc1ccc(CN2C(=O)CCCC2(C)c2nc3ccccc3[nH]2)cc1 (stereo unspecified)	5274
CCCCN1C(=O)C(CC(=O)NCCc2ccccn2)CC(C(=O)N2CCOCC2)=C1C (stereo unspecified)	3429
COC(=O)c1ccc2nc(-c3cccc(Cl)c3)c(CC3CCCCC3)n2c1	6384
C=CCC[C@H](CCCCC)OC(=O)/C=C/[C@@H](O)[C@H](O)C[C@@H](O)CC=C	5882
Cc1ccc(S(=O)(=O)N2C[C@H]3[C@H]4C(=O)N(Cc5ccccc5)C(=O)[C@H]4CC(=O)[C@H]3[C@@H]2c2ccccc2Cl)cc1	5726

Next records follow:
SMILES	Bead autofluor
CCOC(=O)N(C)C[C@@H]1OCc2ccccc2-c2c(n(C)c3ccccc23)C(=O)N([C@H](C)CO)C[C@H]1C	4106
COc1ccc(-n2c(=O)c3c4c(sc3n(CC(=O)NCC3CCCO3)c2=O)CN(C(C)=O)CC4)cc1OC (stereo unspecified)	3886
O=C(CNC(=O)c1cccc(-n2cccc2)c1)Nc1ccccc1Br	3846
C[C@H](O)[C@@H]1C(=O)N2CCc3ccc(-c4ccccc4)cc3[C@@H]2C[C@@H]1N(C)C(=O)c1cccnc1	3831
CC1(c2nnnn2Cc2ccccc2)CCC(=O)N1CCc1ccccc1F (stereo unspecified)	4429
COc1cc(CNc2ncnc3c2ncn3[C@H]2CN(Cc3cccs3)C[C@@H](CO)O2)cc(OC)c1OC	2936
C[C@H]1CN([C@@H](C)CO)C(=O)CCCn2nncc2CO[C@H]1CN(C)C(=O)c1cc(-c2ccccc2)on1	3792
CN(C)C(=O)N1CCc2ccc([N+](=O)[O-])cc21	3406

Molecules above that contain an NH in an aromatic ring (13):
SMILES	Bead autofluor
CCN(CC)Cc1nc2nc(Cl)c(Cl)nc2[nH]1	3928
O=C(c1[nH]c(C(F)(F)F)nc1-c1ccccc1)N1CCN(c2ccc(C(F)(F)F)cn2)CC1	5829
OC[C@H]1O[C@@H](c2nc(-c3ccc4[nH]ccc4c3)no2)[C@H](O)[C@@H](O)[C@H]1O	3740
COc1ccc(F)cc1-c1cc(C(=O)Nc2cccnc2)[nH]n1	3738
CNS(=O)(=O)c1ccc(CNC[C@H]2O[C@@H](n3cnc4c(=O)[nH]c(N)nc43)[C@H](O)[C@@H]2O)cc1	5532
CCCCC(c1nc2ccccc2[nH]1)n1c(-c2ccccc2)nc2ccccc21 (stereo unspecified)	6083
O=C(Oc1ccc[nH]c1=O)c1ccccc1	4000
Cc1cccc(C)c1Nc1n[nH]c(=S)s1	3341
NNc1ccc([N+](=O)[O-])c2[nH][nH]c(=O)c12	2791
COc1ccccc1-c1cnc(C(O)c2ccc(Cl)c(F)c2)[nH]1 (stereo unspecified)	3762
C[C@H](O)[C@@H]1CN2CCc3c([nH]c4ccccc34)[C@@H]2C[C@@H]1N(C)C(=O)Nc1cc(Cl)cc(Cl)c1	4350
CCCOc1ccc(F)cc1-c1cc(C(=O)Nc2ccc(OC)nc2)[nH]n1	3053
COc1ccc(CN2C(=O)CCCC2(C)c2nc3ccccc3[nH]2)cc1 (stereo unspecified)	5274
